DUX4 txn inh – DUX4-mediated transcription inhibition; 293T-iDUX4 ZSCAN4-Gaussia luciferase reporter, 24 h; active compounds read low; hit rate 0.8% among 37,000; AID 1224904; activity change, negative = inhibition, % (test concentration not listed);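 active means -10% or lower and over 25 points stronger than a control reporter; inconclusive means -10% or lower with a smaller gap; inactive means above -10%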;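 further: 0% = median of neutral control wells and -100% = median of positive control wells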
DUX4 txn inh difference – recorded beside DUX4 txn inh, whose call it bears; Gaussia minus Italica difference, %; measured here: selective DUX4 reporter inhibition;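 worked out from the two reporters; negative = selective loss of the DUX4 reporter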
DUX4 txn inh control – recorded beside DUX4 txn inh, whose call it bears; activity change, negative = inhibition, %; measured here: Italica tet-on control reporter;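 0 = neutral control and -100 = positive control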
Starred values were filed as active, the others as inactive; ? = inconclusive; . = no result given.

SMILES | DUX4 txn inh | DUX4 txn inh difference | DUX4 txn inh control
CNC[C@H]1Oc2ccc(NC(=O)Nc3ccc(C(F)(F)F)cc3)cc2CC(=O)N([C@H](C)CO)C[C@@H]1C | 6.2 | 2.5 | 3.7
Cc1ccc(-c2ccc([C@@H]3[C@H]4CN(C(=O)CN5CCOCC5)CC(=O)N4[C@H]3CO)cc2)cc1 | 4.2 | -4.5 | 8.6
COc1ccc2c3c([nH]c2c1)[C@H](CO)N(C(=O)CN(C)C)CC31CCN(CC2CCCCC2)CC1 | -9.4 | -0.4 | -9.0
CCS(=O)(=O)N[C@@H]1CC[C@@H](CC(=O)N2CCCCC2)O[C@@H]1CO | 0.6 | -1.2 | 1.8
Cc1ccc(-c2cnc3c(c2)C(=O)N([C@@H](C)CO)C[C@H](C)[C@H](CN(C)C(=O)Cc2ccccc2)O3)cc1 | -1.0 | -8.4 | 7.3
C[C@@H]1CCCCO[C@@H](CN(C)S(=O)(=O)c2ccc(Cl)cc2)[C@@H](C)CN([C@@H](C)CO)C(=O)c2cc(NS(=O)(=O)c3cn(C)cn3)ccc2O1 | -1.1 | 1.1 | -2.2
C[C@H]1CN([C@@H](C)CO)S(=O)(=O)c2ccc(/C=C/c3ccccc3)cc2O[C@H]1CN(C)C(=O)c1ccc2c(c1)OCO2 | -2.6 | -2.6 | 0.0
CO[C@H]1CN(C)C(=O)c2cc(C#N)ccc2OCC[C@@H]2CC[C@H](OC)[C@@H](CN(C)C(=O)[C@H]1C)O2 | 0.1 | 0.6 | -0.5
CC(=O)N1[C@@H]2c3cccc(=O)n3C[C@H]1[C@H](CO)[C@H]2C(=O)NCc1ccc(F)cc1 | -0.5 | -4.8 | 4.3
CN1C(=O)c2cc(NS(=O)(=O)c3ccccc3F)ccc2OC[C@@H]2O[C@H](CC(=O)NC3Cc4ccccc4C3)CC[C@@H]21 | 3.4 | 1.8 | 1.6
CC(C)OC(=O)N(C)C[C@@H]1OCc2ccccc2-c2c(n(C)c3ccccc23)C(=O)N([C@@H](C)CO)C[C@@H]1C | ? | . | .
CCCNC(=O)N(C)C[C@H]1Oc2cc(C#C[C@@H](C)O)ccc2S(=O)(=O)N([C@H](C)CO)C[C@@H]1C | 0.8 | 1.0 | -0.2

Among those listed so far, these have fluorine:
SMILES | DUX4 txn inh | DUX4 txn inh difference | DUX4 txn inh control
CNC[C@H]1Oc2ccc(NC(=O)Nc3ccc(C(F)(F)F)cc3)cc2CC(=O)N([C@H](C)CO)C[C@@H]1C | 6.2 | 2.5 | 3.7
CC(=O)N1[C@@H]2c3cccc(=O)n3C[C@H]1[C@H](CO)[C@H]2C(=O)NCc1ccc(F)cc1 | -0.5 | -4.8 | 4.3
CN1C(=O)c2cc(NS(=O)(=O)c3ccccc3F)ccc2OC[C@@H]2O[C@H](CC(=O)NC3Cc4ccccc4C3)CC[C@@H]21 | 3.4 | 1.8 | 1.6

Continued:
SMILES | DUX4 txn inh | DUX4 txn inh difference | DUX4 txn inh control
CC=Cc1ccc2n(c1=O)C[C@H]1[C@H](CO)[C@@H](C(=O)NCc3cccc(F)c3)[C@@H]2N1S(C)(=O)=O (mixture of isomers) | 7.6 | 2.3 | 5.3
CC(=O)NC[C@@H]1[C@H](c2ccccc2)[C@H](CO)N1C(=O)Cc1ccncc1 | -4.2 | -3.5 | -0.7
O=C(CN1CCOCC1)N1CC[C@@H]2[C@H](CO)Nc3ccc(-c4ccc(F)cc4)cc3[C@@H]21 | -8.0 | -6.7 | -1.3
C[C@H]1CN([C@@H](C)CO)C(=O)c2cc(C#CC(C)(C)O)cnc2O[C@H]1CN(C)C(=O)C1CCOCC1 | 0.3 | 3.3 | -3.0
C[C@H](CO)N1C[C@H](C)[C@H](CN(C)Cc2ccc(-c3ccccc3)cc2)Oc2ccc(NC(=O)Nc3ccc(F)cc3)cc2CC1=O | -0.9 | 0.1 | -0.9
COc1ccc2c3c([nH]c2c1)[C@@H](CO)N(C(=O)c1cccnc1)CC31CCN(C(=O)c2cccnc2)CC1 | 12.3 | 3.8 | 8.5
COC(=O)C[C@@H]1C[C@@H]2c3cc(NC(=O)Nc4ccccc4)ccc3O[C@@H]2[C@H](CO)O1 | 4.9 | 3.7 | 1.1
COc1ccc([C@@H]2CC=CC[C@@H](C)Oc3ccccc3C(=O)N(C)[C@@H](C(C)C)C(=O)N2)c(OC)c1 (mixture of isomers) | 4.5 | 0.9 | 3.6
O=C(C[C@@H]1C[C@@H]2c3cc(NS(=O)(=O)c4ccc(F)cc4)ccc3O[C@@H]2[C@@H](CO)O1)NCc1ccc(Oc2ccccc2)cc1 | ? | . | .
CS(=O)(=O)N1[C@@H](CO)[C@@H](c2ccccc2)C12CN(C(=O)c1ccccc1F)C2 | 12.8 | 11.5 | 1.3
COc1ccccc1CN1C[C@H](C)[C@@H](OC)CN(C)C(=O)c2ccc(NC(C)=O)cc2OC[C@@H]1C | 5.3 | 0.5 | 4.8
CCC(=O)N1[C@@H]2Cn3c(ccc(C4=CCCC4)c3=O)[C@H]1[C@@H](C(=O)N[C@@H](C)c1ccccc1)[C@@H]2CO | 1.7 | -5.5 | 7.2
CCCNC(=O)N1CC[C@@H]2[C@@H](CO)N(C)c3ccc(-c4ccccc4)cc3[C@@H]21 | 2.8 | 8.4 | -5.6
C[C@H](NC(=O)C[C@H]1C[C@H]2c3cc(NC(=O)CN(C)C)ccc3O[C@H]2[C@@H](CO)O1)c1ccccc1 | 6.8 | 3.3 | 3.5
CCCNC(=O)NC[C@H]1[C@H](c2ccc(C3=CCCC3)cc2)[C@H](CO)N1C(=O)CC | 6.2 | 3.2 | 3.1
C/C=C/c1ccc([C@H]2[C@H](CO)N(C(=O)COC)[C@H]2CNC(=O)CC)cc1 | -0.9 | -0.6 | -0.2
Cc1noc(C)c1NC(=O)Nc1ccc2c(c1)C(=O)N([C@H](C)CO)C[C@@H](C)[C@H](CN(C)C(=O)NC1CCCCC1)OCCCC[C@@H](C)O2 | -3.6 | -7.9 | 4.3
COc1ccc2c3c(n(C)c2c1)[C@H](CO)N(Cc1nccs1)CC31CCN(C(=O)CN(C)C)CC1 | 9.7 | 5.1 | 4.6
O=C(N[C@H]1CC[C@H](CCn2cc(-c3ccccn3)nn2)O[C@@H]1CO)c1ccncc1 | 6.9 | 1.9 | 5.1
CNC[C@@H]1Oc2ccc(NS(=O)(=O)c3c(C)noc3C)cc2CC(=O)N([C@H](C)CO)C[C@H]1C | 1.5 | -1.6 | 3.1
COc1ccc(CNC(=O)C[C@@H]2C=C[C@H](NC(=O)Nc3ccc4c(c3)OCO4)[C@H](CO)O2)cc1 | 9.0 | 4.8 | 4.2
CCS(=O)(=O)N1CC(=O)N2[C@H](C1)[C@H](c1ccc(C#Cc3cccc(F)c3)cc1)[C@@H]2CO | -5.6 | -13.7 | 8.1
CCC(=O)N1[C@@H]2Cn3c(ccc(C4=CCCC4)c3=O)[C@H]1[C@@H](C(=O)NCC1CCCCC1)[C@@H]2CO | -3.3 | -4.1 | 0.7
O=S(=O)(c1ccccc1)N1CCCCN2[C@H](C1)[C@H](c1ccc(C#CC3CCCC3)cc1)[C@@H]2CO | -26.4* | -27.5* | 1.1*
COc1ccccc1-c1ccc2c(c1)O[C@@H](CN(C)C(=O)c1ccncc1)[C@@H](C)CN([C@@H](C)CO)S2(=O)=O | -1.2 | -3.5 | 2.2
CC(C)NC(=O)N(C)C[C@H]1OCc2ccccc2-c2ccccc2C(=O)N([C@H](C)CO)C[C@@H]1C | 15.7 | 8.1 | 7.6
CN(C)CC#Cc1ccc([C@H]2[C@@H](CO)N3CCCCN(C(=O)CN(C)C)C[C@H]23)cc1 | 27.8 | 15.3 | 12.5
CCCN1C[C@@H](C)[C@@H](OC)CN(C)C(=O)c2cc(NC(=O)NC3CCCCC3)ccc2OC[C@H]1C | 4.1 | 4.5 | -0.5
COc1ccc(CN(C)C[C@H]2Oc3ccc(NC(=O)Nc4c(C)noc4C)cc3C(=O)N([C@H](C)CO)C[C@@H]2C)cc1 | -0.1 | -6.3 | 6.2
C[C@H](NC(=O)C[C@@H]1C[C@@H]2c3cc(NC(=O)CN(C)C)ccc3O[C@@H]2[C@H](CO)O1)c1ccccc1 | 7.1 | 4.5 | 2.6
COCC(=O)Nc1ccc2c(c1)C(=O)N(C)C[C@@H](OC)[C@@H](C)CN(CCc1ccccc1)[C@@H](C)CO2 | 12.2 | 9.4 | 2.8
CCC(=O)N1CC2(C1)[C@@H](c1ccccc1)[C@@H](CO)N2CCC(F)(F)F | 14.8 | 15.3 | -0.5
O=C(Nc1ccc(Cl)cc1)N1C[C@@H]2[C@H](c3ccccc31)[C@@H](CO)N2CC1CCCCC1 | 4.7 | 7.7 | -3.0
O=C(c1ccccc1)N1C[C@H]2[C@@H](c3ccccc31)[C@@H](CO)N2S(=O)(=O)c1ccccc1 | 2.6 | 10.1 | -7.5
C[C@H]1CCCCO[C@H](CN(C)Cc2ccc3c(c2)OCO3)[C@@H](C)CN([C@@H](C)CO)C(=O)c2cc(N(C)C)ccc2O1 | 0.5 | 0.8 | -0.3
CCC(=O)N1C[C@@H](O)COC[C@@H]2O[C@@H](CC(=O)NCc3ccc(Oc4ccccc4)cc3)CC[C@H]21 | 5.1 | -0.9 | 6.0

Compound profiles, from the list above. Values in the order: DUX4 txn inh, DUX4 txn inh difference, DUX4 txn inh control
Entry for CC(C)NC(=O)N(C)C[C@H]1OCc2ccccc2-c2ccccc2C(=O)N([C@H](C)CO)C[C@@H]1C : 15.7, 8.1, 7.6
Entry for C[C@H](NC(=O)C[C@@H]1C[C@@H]2c3cc(NC(=O)CN(C)C)ccc3O[C@@H]2[C@H](CO)O1)c1ccccc1 : 7.1, 4.5, 2.6

(listing goes on)
SMILES | DUX4 txn inh | DUX4 txn inh difference | DUX4 txn inh control
O=C(c1cnccn1)N1CC[C@H]2[C@H](CO)Nc3ccc(-c4ccccc4F)cc3[C@H]21 | 10.4 | 2.2 | 8.2
C[C@@H]1CN([C@@H](C)CO)C(=O)c2cc(NS(=O)(=O)c3cn(C)cn3)ccc2O[C@@H](C)CCCCO[C@@H]1CN(C)Cc1ccc2c(c1)OCO2 | -3.3 | -2.4 | -0.9
CNC[C@H]1Oc2ccc(NS(=O)(=O)c3cccs3)cc2C(=O)N([C@H](C)CO)C[C@H]1C | -1.3 | 1.8 | -3.1
CC=Cc1ccc2n(c1=O)C[C@H]1[C@H](CO)[C@@H](C(=O)NCC)[C@@H]2N1CC1CCOCC1 (mixture of isomers) | 1.5 | 4.6 | -3.1
C[C@@H]1CN([C@@H](C)CO)C(=O)CCCn2cc(nn2)CO[C@H]1CN(C)S(=O)(=O)c1ccc(Cl)cc1 | -5.7 | -9.3 | 3.5
COc1ccccc1CNC(=O)C[C@H]1C[C@@H]2c3cc(NC(=O)NC4CCCC4)ccc3O[C@@H]2[C@H](CO)O1 | 1.0 | -1.5 | 2.5
CC(=O)N1[C@@H]2CN(C(=O)c3ccccc3)c3ccccc3[C@@H]2[C@@H]1CO | -3.2 | 5.2 | -8.4
CCCNC(=O)N1[C@H](CO)[C@H](c2ccc(C3=CCCC3)cc2)[C@@H]1C#N | 0.5 | -1.7 | 2.2
CCCC#Cc1ccc([C@H]2[C@H](CO)N3C(=O)CN(C(=O)Nc4ccccc4F)C[C@@H]23)cc1 | ? | . | .
N#C[C@@H]1[C@@H](c2ccccc2-c2ccccc2F)[C@H](CO)N1C(=O)C1CCOCC1 | 10.8 | 2.8 | 8.0
C[C@@H]1CN([C@@H](C)CO)S(=O)(=O)c2ccc(C#Cc3cccc(F)c3)cc2O[C@@H]1CN(C)S(=O)(=O)c1cn(C)cn1 | 4.0 | 0.2 | 3.7
COc1ccccc1NC(=O)C[C@H]1CC[C@H]2[C@@H](COc3ccc(NS(C)(=O)=O)cc3C(=O)N2C)O1 | 0.5 | 0.8 | -0.3
CCCC#Cc1ccc2c(c1)O[C@H](CN(C)C(=O)Nc1ccc(OC)cc1)[C@@H](C)CN([C@@H](C)CO)S2(=O)=O | -0.1 | 0.1 | -0.2
Cc1noc(C)c1NC(=O)Nc1ccc2c(c1)C(=O)N([C@H](C)CO)C[C@H](C)[C@@H](CN(C)Cc1ccc3c(c1)OCO3)OCCCC[C@H](C)O2 | 2.2 | 1.4 | 0.8
CO[C@H]1CN(C)C(=O)c2ccc(NC(=O)c3ccc(F)cc3)cc2OC[C@H](C)N(C(=O)CN(C)C)C[C@@H]1C | 1.3 | -5.2 | 6.5
O=C(NC1CCCCC1)N1CC(=O)N2[C@H](CO)[C@H](c3ccc(-c4cccc(F)c4)cc3)[C@H]2C1 | -4.5 | -3.6 | -0.9
COc1ccc(C#Cc2ccc([C@H]3[C@@H](CO)N4CCCCN(C(=O)Nc5ccccc5)C[C@@H]34)cc2)cc1 | ? | . | .
CNC[C@H]1Oc2c(NC(=O)c3cnccn3)cccc2C(=O)N([C@H](C)CO)C[C@@H]1C | 1.3 | 2.2 | -0.9
O=C(c1cccnc1)N1C[C@@H]2[C@H](c3ccccc31)[C@@H](CO)N2C(=O)Nc1ccc(F)cc1 | 2.0 | 0.2 | 1.9
C[C@@H]1CN([C@H](C)CO)C(=O)CCCn2nncc2CO[C@H]1CN(C)C(=O)Nc1ccc(C(F)(F)F)cc1 | 1.8 | -1.6 | 3.4
CC=Cc1ccc2n(c1=O)C[C@H]1[C@H](CO)[C@@H](C(=O)N3CCOCC3)N(Cc3ccccc3)[C@@H]21 (mixture of isomers) | 1.9 | 0.5 | 1.4
COc1ccc(-c2ccccc2[C@H]2[C@@H](C#N)N(C(=O)C3CCCCC3)[C@H]2CO)cc1 | ? | . | .
O=C(C1CCCCC1)N1CC2(C1)[C@H](c1ccccc1)[C@H](CO)N2C(=O)NC1CCCC1 | 4.1 | 2.0 | 2.1
C[C@H](CO)N1C[C@H](C)[C@H](CN(C)Cc2ccncc2)Oc2ncc(C#CCC3CCCCC3)cc2C1=O | -1.2 | 1.4 | -2.5

High-throughput results (PubChem)

This is a subset, so the mix of outcomes need not match the whole.
